Screening results (PubChem)
Mtb bLac sens – beta-lactam sensitization of Mtb H37Rv. M. tuberculosis H37Rv growth with meropenem, percent inhibition; hits of this screen are not shown here. inhibition, % at 25 µM. 0.27% of 330,000 active;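 active = about 74% or more and at least 40 points above the plate without the antibiotic, then above 30% in a dose series; inconclusive = first-round hits that could not be retested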;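 also: growth measured after seven days incubation then overnight dye step; 0% = bacteria only wells and 100% = bacteria with antibiotic; twin plates without the antibiotic show which effects depend on it; some results filed as inactive read as strong as hits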
An asterisk follows results filed as active; ? = inconclusive. Only part of the results is shown, so the mix of outcomes need not match the whole.

SMILES | Mtb bLac sens
CCN(C[C@H]1N[C@@](CC)(C(=O)OC)[C@H]2C(=O)N(C)C(=O)[C@@H]12)S(=O)(=O)c1ccc(C)cc1 | -1.1
Cc1ccc(C)c(OCCC(=O)Nc2ccc3c(c2)OCO3)c1 | 99.0
COC(=O)[C@@]12CCCN1[C@H](c1ccc(SC3CCCCC3)cc1)[C@H]1C(=O)N(C)C(=O)[C@H]12 | -8.7
CCN1CCN(S(=O)(=O)c2ccc(Cl)c(C(=O)N(C)Cc3ccccc3)c2)CC1 | 1.2
O=C(C[C@H]1C/C=C\C[C@@H](Cc2ccc(F)cc2)C(=O)OC[C@H]2CCCN2C1=O)N[C@H](CO)Cc1ccccc1 | -9.9
C=CCN1CC[C@]23c4c5ccc(O)c4OC2[C@H](O)CC[C@@]3(O)[C@H]1C5 (stereo not given in full) | -4.9
CC(=O)c1c(C)[nH]c(C(=O)COC(=O)Cc2ccccc2F)c1C | 2.0
COc1ccc([C@H]2CC(=O)C=C(c3cccc(C(C)C)c3)C2)cc1OC | ?
COc1ccc(OC)c(NC(=O)COC(=O)CCNc2ccccc2OC)c1 | -3.5
C[C@@H](NC(=O)c1ncn(Cc2ccccc2)c1C(=O)N[C@H](C)c1ccccc1)c1ccccc1 | 16.0
CCCCNS(=O)(=O)NC(=O)C1=C(N2CCCC2)COC1=O | 6.2
COc1ccc(C2=C3C(=O)OCC3Cc3ncn(Cc4ccccc4)c32)cc1 (stereo not given) | -1.6
CCCC(C(=O)NCCC(C)C)N(Cc1ccccc1)C(=O)c1snc(C(N)=O)c1N (stereo not given) | 1.4
O=C(NC(=S)N1CCOCC1)c1cn(-c2ccccc2)nc1-c1ccc(F)cc1 | -1.2
CCOc1ncccc1C(=O)NNC(=O)CSc1ccc(Cl)cc1 | 6.7
COc1ccc(OC)c(NC(=O)COC(=O)C2CCCCC2)c1 | -2.0
CC(C)(C)NC[C@H](O)COc1cccc2c1CCCC2=O | -2.8
Nc1cc(=O)[nH]c(SCC(=O)Nc2cccc(S(=O)(=O)N3CCCCCC3)c2)n1 | -3.4
CN(C)c1ccc(NC(=O)COC(=O)c2ccc3c(c2)OCO3)cc1 | -0.5
O=C1CC/C=C\C[C@@H](CC(=O)N(CCO)Cc2ccccc2)C(=O)NC[C@@H](c2ccccc2)O1 | 1.4

Nothing new here: entries from further up.
SMILES | Mtb bLac sens
CCOc1ncccc1C(=O)NNC(=O)CSc1ccc(Cl)cc1 | 6.7
COc1ccc(OC)c(NC(=O)COC(=O)C2CCCCC2)c1 | -2.0
CC(C)(C)NC[C@H](O)COc1cccc2c1CCCC2=O | -2.8
Nc1cc(=O)[nH]c(SCC(=O)Nc2cccc(S(=O)(=O)N3CCCCCC3)c2)n1 | -3.4
CN(C)c1ccc(NC(=O)COC(=O)c2ccc3c(c2)OCO3)cc1 | -0.5
O=C1CC/C=C\C[C@@H](CC(=O)N(CCO)Cc2ccccc2)C(=O)NC[C@@H](c2ccccc2)O1 | 1.4

The listing continues:
SMILES | Mtb bLac sens
CC(c1ccccc1)N(C)C(=O)CN1CCN(S(=O)(=O)c2ccc3c(c2)OCCCO3)CC1 (stereo not given) | -4.2
C=CCn1c(O)c(N=Nc2ccccc2O)c2ccccc21 | ?
COc1ccccc1N(CC(=O)Nc1ccc(C)cc1Cl)S(=O)(=O)c1cccs1 | -7.4
O=[N+]([O-])c1ccccc1S(=O)(=O)NC1CCCCCCC1 | -7.3
Cc1cccc(N2CCN(S(=O)(=O)c3ccc(Cl)nc3)CC2C)c1 (stereo not given) | 5.4
CN1CCN(C(=O)CN2C(=O)NC(C)(c3ccc4ccccc4c3)C2=O)CC1 (stereo not given) | -1.4
Nc1nnc(SCC(=O)Nc2cc(S(=O)(=O)N3CCOCC3)ccc2N2CCCC2)s1 | -6.2
O=C(CN1CCCCCCC1)N/N=C/c1ccc([N+](=O)[O-])o1 | 0.0
CC(C(=O)Nc1ccc(C(F)(F)F)cc1)N(C)CC(=O)N1CCN(Cc2ccccc2)CC1 (stereo not given) | -2.4
O=C(Cc1ccc([N+](=O)[O-])cc1)NC1CCCCCC1 | -8.7
COc1ccc(Cl)cc1NC(=O)CN(C)C(=O)c1cc2c(F)cccc2s1 | -1.4
CN(c1ccccc1)S(=O)(=O)c1ccc(Cl)c(C(=O)NCc2ccco2)c1 | 5.3
CCOC(=O)[C@H]1[C@H]2COc3cc(OC)ccc3[C@@H]2N2C(=O)c3cc(F)ccc3NC(=O)[C@@]12C | -2.0
Cc1ccc(NC(=O)CCc2ccc(S(=O)(=O)N3CCOCC3)cc2)c(O)c1 | -1.3
COc1cc(-c2nnc(COC(=O)c3ccc(C)o3)o2)cc(OC)c1OC | -1.6
CCC(C)Sc1ccc([C@H]2N[C@@](C)(C(=O)OC)[C@H]3C(=O)N(C)C(=O)[C@@H]23)cc1 (stereo not given in full) | 2.8
CNc1ccc(C(=O)OCC(=O)NC(=O)NC2CCCCC2)cc1[N+](=O)[O-] | -3.8
CC1CCCC(C)N1C(=O)COC(=O)c1cc(=O)[nH]c2ccccc12 (stereo not given) | -4.5
CCCn1c(SCC(=O)Nc2cccnc2Cl)n[nH]c1=O | -3.6
Cc1ccc2c(c1)CCCN2C(=O)CCc1nc2ccccc2c(=O)[nH]1 | -1.8
Cc1[nH][nH]c(=O)c1N=Nc1ccc(Br)c(Cl)c1 | 53.0
CC(C)NC(=O)N(C)C[C@H]1Oc2c(NC(=O)c3ccc(-c4nccs4)cc3)cccc2C(=O)N([C@@H](C)CO)C[C@H]1C | -1.7
CC(C)CCN1C(=O)c2ccc(C(=O)OCC(=O)N(CC(C)C)C3CCS(=O)(=O)C3)cc2C1=O (stereo not given) | -4.4
O=C(c1cc(Cl)ccc1Cl)N1CCc2ccccc21 | -11.8
CCN(CC(=O)Nc1ccccc1C(F)(F)F)C(=O)c1ccccc1Sc1ccccc1C#N | 1.0
COc1ccc(C(CNC(=O)c2ccc(Cl)c(S(=O)(=O)N3CCCC3)c2)N2CCCC2)cc1 (stereo not given) | -8.7
COc1ccc([C@H]2CC(=O)C=C(c3ccc(C(F)(F)F)c(C(F)(F)F)c3)C2)cc1OC | -4.0
CC(Sc1nnnn1-c1cccc(F)c1)C(=O)NC1CCCC1 (stereo not given) | 1.5
CN(CCc1ccccc1)C(=O)c1ccc(NC(=O)Cc2cccc([N+](=O)[O-])c2)cc1 | 55.6
Cc1cc(C)n(-c2ccc(C(=O)NCC(=O)Nc3cc(Cl)ccc3Cl)cc2)n1 | 69.0
CN1CCN(CC(=O)NC(=O)NC2CCCCC2)CC1 | -9.6
CC1(C)NC(=O)N(CC(=O)N2CCN(c3cccc(C(F)(F)F)c3)CC2)C1=O | -3.9
COc1cc2cnc(-c3ccsc3)cc2cc1OC | 13.5
NS(=O)(=O)c1ccc(CCNC(=O)c2cc([N+](=O)[O-])ccc2N2CCOCC2)cc1 | -2.8
CCN(C[C@H]1N[C@@](CC)(C(=O)OC)[C@H]2C(=O)N(C)C(=O)[C@@H]12)C(C)=O | -6.0
Cc1ccccc1N1CCN(CC(=O)Nc2ccccc2C(=O)NC2CC2)CC1 | -4.5
O=C(COC(=O)c1cccc(F)c1)NCCC1=CCCCC1 | 0.3
CC(C)(C)c1ccc(C(=O)NNC(=O)CCC(=O)Nc2ccccc2)cc1 | -8.6
COc1ccc(C(=O)C(C)Sc2nnc(C3CC3)n2C2CC2)cc1 (stereo not given) | -12.7
Cc1csc(CNc2ncnc3ccc(-c4cccc(Cl)c4)cc23)c1 | 13.1

Looked up above.
CCCCNS(=O)(=O)NC(=O)C1=C(N2CCCC2)COC1=O in Mtb bLac sens has 6.2
Nc1nnc(SCC(=O)Nc2cc(S(=O)(=O)N3CCOCC3)ccc2N2CCCC2)s1 in Mtb bLac sens has -6.2

(further entries)
SMILES | Mtb bLac sens
Cc1ccnc2nc(C(=O)OCC(=O)NC3CCCC(C)C3C)nn12 (stereo not given) | 4.8
CCOC(=O)N1CCN(C(=O)/C=C/c2ccc(OC)cc2)CC1 | -5.3
O=C(N/N=C/c1ccc(O)c(O)c1)c1ccc(-n2cnnn2)cc1 | -1.3
COc1ccc2sc(-c3ccc(N(C)C)cc3)c(-c3ccc4cc[nH]c4c3)c2c1 | -0.5
Cc1ccc(S(=O)(=O)N2CCOCC2)cc1NC(=O)COC(=O)c1cc[n+]([O-])cc1 | -5.6
COCc1c(C(=O)N2CCN(Cc3nc4ccccc4s3)CC2)oc2ccccc12 | 3.3
CNC(C)(C)Cc1ccccc1 | -12.1
Cc1ccccc1OCC(=O)N/N=C/c1cccc2cccnc12 | 78.2
CCOc1ccccc1NC(=O)c1cc(=O)[nH]c2ccc(S(=O)(=O)N3CCOCC3)cc12 | -0.1
Cn1c(SCC(=O)Nc2cccnc2Cl)nnc1-c1ccco1 | -5.5
CNS(=O)(=O)c1cccc(C(=O)OCC(=O)c2ccc[nH]2)c1 | -1.9
O=C1OC[C@H]2CCCN2C(=O)[C@@H](CC(=O)N(CCO)Cc2ccccc2)C/C=C\C[C@@H]1Cc1ccc(F)cc1 | -0.8
O=C(Nc1cccc(S(=O)(=O)N2CCCCCC2)c1)c1ccc(=O)[nH]c1 | -5.0
CCOC(=O)Cc1csc(NC(=O)COC(=O)/C=C/c2ccc(OC)cc2)n1 | -3.2
CC(NC(=O)c1ccco1)C(=O)OCC(=O)N1CCCCCC1 (stereo not given) | -0.2
C[C@H](NC(=O)c1nc[nH]c1C(=O)N[C@@H](C)c1ccccc1)c1ccccc1 | 26.1
Cc1onc(-c2ccccc2)c1C(=O)N1CCCCCC1 | -7.0
O=C(NCc1ccccc1Cl)C1CCN(S(=O)(=O)c2cccs2)CC1 | 0.6
COc1ccc(NC(=O)Nc2ccc3c(c2)CC(=O)N([C@H](C)CO)C[C@@H](C)[C@H](CN(C)C(=O)Nc2ccccc2)O3)cc1 | 5.4
O=C(COC(=O)c1cnccn1)Nc1cc(S(=O)(=O)N2CCOCC2)ccc1Cl | -6.0
CCOc1ccc(NC(=O)CN(C)C(=O)C2CCN(C(=O)c3ccc(Cl)cc3)CC2)cc1OCC | -8.6
CCOC(=O)CNC(=O)Cn1cnc2sc(C)c(S(=O)(=O)N3CCOCC3)c2c1=O | -1.7
Oc1ccc(Cl)c(Cl)c1Cl | 7.9
CC1(c2ccc3c(c2)OCCO3)NC(=O)N(CC(=O)Nc2ccccc2)C1=O (stereo not given) | -8.8
COCCCNC(=S)N(CCCO)Cc1cc2cc3c(cc2[nH]c1=O)OCO3 | 0.9
COC(=O)C1=C(c2ccc(F)cc2OCc2ccccc2)C[C@@H]2CC[C@H]1N2C(=O)NC1CCN(Cc2ccccc2)CC1 | 76.2
CCc1noc(C)c1C(=O)N1CCN(S(=O)(=O)c2ccccc2C(F)(F)F)CC1 | 2.0
O=C(CN1CCN(C(=O)c2cncn2-c2ccc(F)cc2)CC1)Nc1ccccc1C(F)(F)F | -3.0
Cc1ccc(S(=O)(=O)N2[C@@H](c3cccc(C)c3)C(C(=O)O)=C[C@H]2CC2CCCC2)cc1 | -8.9
CCOc1ccc([C@@H]2CC=C(C(=O)O)CN2S(=O)(=O)c2ccc(C)cc2)cc1 | 1.4
CCc1ccc(N2CC(C(=O)Nc3cccc(C(=O)NC4CC4)c3)CC2=O)cc1 (stereo not given) | -2.9
CCc1sc(C(=O)NNC(=O)c2cncc(Br)c2)cc1C | 2.5
COC(=O)C1=C(c2ccc(OC(F)(F)F)cc2)C[C@@H]2CC[C@H]1N2C(=O)NCCc1ccccc1 | 16.1
O=C(COc1cc([N+](=O)[O-])cc2cccnc12)NCCC1=CCCCC1 | -1.6
C[C@H](CO)N1C[C@H](C)[C@@H](CN(C)Cc2ccncc2)Oc2c(NC(=O)CCC(F)(F)F)cccc2C1=O | -0.1
CC(C)(C)c1ccc(-n2ncc3c2CCCC3NC(=O)CCN2CCCCC2=O)cc1 (stereo not given) | ?
COc1ccc(C(=O)Nc2cc(-c3ccccc3)nn2-c2ccccc2F)cc1 | -7.3
CC(NC(=O)COC(=O)CNC(=O)C1CCCCC1)c1ccccc1 (stereo not given) | 1.3
O=C(C1COc2ccccc2O1)N1CCN(c2ccc(C(F)(F)F)cn2)CC1 (stereo not given) | 3.5
COc1cc(/C=N/NC(=O)c2ccc(NS(=O)(=O)c3cccs3)cc2)cc(OC)c1O | 2.0
COc1ccccc1CNC(=O)CN1C(=O)NC2(CCCCCC2)C1=O | -10.8
CCc1ccc(NC(=O)C2=CC=CN3CCS(=O)(=O)N=C23)cc1 | -0.7
CSc1ccc(CN(C)CC(=O)NC(=O)NCCC2=CCCCC2)cc1 | 9.1
CCC1Nc2ncnc(N3CCc4ccccc4C3)c2N(Cc2ccc(Cl)cc2)C1=O (stereo not given) | 13.5
Cc1ccc(CN2C(=O)C(CC(C)C)Nc3ncnc(N4CCOCC4)c32)cc1 (stereo not given) | -5.0
Cc1ccc(C)c(S(=O)(=O)N2CCN(C(=O)c3ccccn3)CC2)c1 | 4.1
COc1ccccc1N1CCN(C(=O)C2CCCN(S(=O)(=O)c3ccc(C)cc3)C2)CC1 (stereo not given) | 1.3
COc1ccc(S(=O)(=O)Nc2cc(Cl)ccc2-n2cncn2)cc1 | -5.3
O=C(CN1C(=O)NC2(CCCC2)C1=O)NCCc1ccccc1 | -1.5
COc1ccc(C(C)(C)C)cc1NC(=O)c1ccccc1-n1cnnn1 | -8.1
CCOC(=O)c1ccn(CSc2c(F)c(F)cc(F)c2F)n1 | -9.0
C=CCC[C@H](Cc1ccc(F)cc1)C(=O)OC[C@H](Cc1c[nH]c2ccccc12)NC(=O)[C@@H](CC=C)CC(=O)N[C@@H](CO)Cc1ccccc1 | 0.9
C[C@H](CO)N1C[C@H](C)[C@@H](CN(C)S(C)(=O)=O)Oc2c(NC(=O)C3CCCCC3)cccc2C1=O | -0.8
CN(Cc1ccccc1)C(=O)c1ccc(NC(=O)C2CCN(C(=O)OC(C)(C)C)CC2)cc1 | -1.1
CCOc1ccc(NC(=O)CN(C)C(=O)CCCn2c(=O)oc3ccccc32)cc1OCC | 3.4
Cc1ccc(N2C(=O)N(CC(=O)Nc3ccccc3C(F)(F)F)C(=O)C2C)cc1 (stereo not given) | -2.5
CSCCC(NC(=O)c1ccccc1Br)C(=O)NNC(=O)c1ccncc1 (stereo not given) | 72.7
